# RanGTP-Impb inh: inhibitors of RanGTP-importin-beta interaction, primary screen, biochemical, FRET, CFP-Ran, YFP-importin-beta, homogeneous; AID 2216; 300,000 tested, 1.1% active; inhibition, % (no concentration beside the values); cell-free CFP-Ran/YFP-importin-beta FRET ratio;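 active means most replicates above 15%; inconclusive means exactly half above 15%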;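 further: 0% = DMSO wells and 100% = Ran loaded with GDP instead of GTP; wells of about 40 µL received 100 nL stock; the first replicate is given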
# FGF22 binding: binders of recombinant human FGF22 by thermal shift. Q9HCT0. SYPRO orange fluorescence; percent of sucrose octasulfate shift, DMSO zero. calls only at 9.99 µM. 340,000 tested, 1.5% active;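 active means melting point raised past a set limit in the mean and every replicate; inconclusive means no clear call; three in four hits are not shown here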
# Target sequence (Q9HCT0 whole entry, looked up): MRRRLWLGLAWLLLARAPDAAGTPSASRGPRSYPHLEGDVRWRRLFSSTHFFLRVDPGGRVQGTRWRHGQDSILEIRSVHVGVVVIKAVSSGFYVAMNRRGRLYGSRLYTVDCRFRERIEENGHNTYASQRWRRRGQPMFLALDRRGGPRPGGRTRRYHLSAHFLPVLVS
# Calb FLC: affects C. albicans growth with fluconazole | C. albicans CaCi-2 (fluconazole-resistant clinical isolate) + fluconazole, Alamar Blue growth, 48 h | growth inhibition, % (concentration not given with the values) | 300,000 tested, 0.57% active | AID 1979;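 active means most replicates above 75%; inconclusive means exactly half above 75%; inactive means most below 75%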;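 further: all wells also contain fluconazole at 8 µg/ml as a sub-toxic cotreatment; 0% = median of DMSO wells and 100% = median of geldanamycin control wells; wells of about 8 µL received 7.5 nL stock; the first replicate is given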
# AF4-AF9 inh: blocks AF4 peptide binding to human AF9. P42568. AlphaScreen, biotin-AF4 peptide binding to FLAG-AF9. inhibition, % at 10 µM. 350,000 tested, 0.47% active. AID 651704;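 active means every replicate reaching a set inhibition limit, whatever the replicate mean, cut at about 25% in these data; inconclusive means mean inhibition reaches that limit but some replicates miss it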;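 further: 0% = plate neutral control median and 100% = total signal loss; the record names both 10 and 1 µM as test concentration; the first replicate is given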
# Target sequence (P42568 whole entry, looked up): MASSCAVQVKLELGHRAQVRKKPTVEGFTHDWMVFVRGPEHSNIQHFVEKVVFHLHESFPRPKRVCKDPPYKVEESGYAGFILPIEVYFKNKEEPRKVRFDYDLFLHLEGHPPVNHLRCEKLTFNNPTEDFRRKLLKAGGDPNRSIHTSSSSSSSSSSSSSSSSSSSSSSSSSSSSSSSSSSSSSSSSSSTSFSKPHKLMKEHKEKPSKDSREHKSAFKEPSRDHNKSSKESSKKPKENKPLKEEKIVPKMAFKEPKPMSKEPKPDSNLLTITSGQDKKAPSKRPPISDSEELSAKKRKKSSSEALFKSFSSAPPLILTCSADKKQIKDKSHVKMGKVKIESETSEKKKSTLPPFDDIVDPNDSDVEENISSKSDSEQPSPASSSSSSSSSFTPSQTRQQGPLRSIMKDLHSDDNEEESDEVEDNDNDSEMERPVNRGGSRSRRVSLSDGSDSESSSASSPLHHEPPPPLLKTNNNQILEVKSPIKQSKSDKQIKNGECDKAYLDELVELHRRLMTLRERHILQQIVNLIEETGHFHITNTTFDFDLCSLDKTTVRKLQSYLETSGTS
# Beta apoptosis: beta cell apoptosis inhibition. INS-1E cytokine-induced death, ATP luminescence, 48 h; percent of positive-control rescue, neutral wells zero. protection from apoptosis, % (no concentration beside the values). 300,000 tested, 0.8% active. AID 435005;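 active means all replicates at 75% or more, or half of them and the mean; inconclusive means half reach 75% but not the mean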;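 further: 0% = cytokine-treated negative control wells and 100% = positive control rescue; higher means more ATP so stronger rescue from cytokine killing; wells of about 40 µL received 100 nL stock; the first replicate is given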
# ALR H2O2 inh: blocks human ALR sulfhydryl oxidase activity. P55789. purified ALR, DTT oxidation, H2O2 HRP-luminol luminescence. inhibition, % (concentration not given with the values). 290,000 tested, 3.8% active. AID 485317;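 active means mean and each replicate at 75% or more; inconclusive means only one of the two met; inactive means neither met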;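 further: stock transfer was 7.5 nL into about 7.5 µL; 0% = neutral wells and 100% = wells with inactivated enzyme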
# Target sequence (P55789 whole entry, looked up): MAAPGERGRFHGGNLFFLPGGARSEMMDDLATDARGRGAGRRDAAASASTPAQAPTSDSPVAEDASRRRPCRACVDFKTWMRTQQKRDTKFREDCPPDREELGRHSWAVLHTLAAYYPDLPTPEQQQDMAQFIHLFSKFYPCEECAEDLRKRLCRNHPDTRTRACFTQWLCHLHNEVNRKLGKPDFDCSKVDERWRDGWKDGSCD
# Ecoli rRNA inh: inhibits bacterial ribosomal RNA function over humanized ribosomes | E. coli WT GFP vs humanized-ribosome RFP mutants, fluorescence, 24 h; stronger effect = lower value; DMSO median 0, no signal -100 | GFP signal change (wild-type ribosome), % (concentration not given with the values) | 350,000 tested, 1.6% active;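 active means significant combined selectivity score with lowered wild-type GFP, culture density cut under 30%, mutant RFP and density less affected; inactive means any of these conditions unmet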; further: one replicate is shown; some compounds called inactive have numbers as strong as hits
# T cruzi repl: blocks replication of Trypanosoma cruzi | AID 1885 | 300,000 tested, 1.4% active | T. cruzi beta-gal in NIH3T3, luminescence, 90 h | inhibition, % (concentration not given with the values);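 active means mean inhibition across valid replicates above about 55%, limit read from the data; inconclusive means mean below that limit but half or more replicates reach it; inactive means mean below it, under half of replicates reach it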;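 further: signal also drops with host cell toxicity which is not excluded here; 0% = plate median of DMSO wells and 100% = zero luminescence signal; higher percent means less beta-gal luminescence so fewer parasites; stock transfer was 50 nL into about 50 µL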
# Ecoli rRNA inh OD600: also measured in Ecoli rRNA inh; calls as there; OD600 change, %; measured here: OD600 growth;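 optical density of the mix in the first replicate; 0 = DMSO median and -100 = no signal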
# Ecoli rRNA inh RFP: also measured in Ecoli rRNA inh; calls as there; RFP signal change, %; measured here: RFP humanized mutant strains;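 first replicate; 0 = DMSO median and -100 = no signal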
# Active calls of the source: *; i = inactive; ? = inconclusive; . = not tested or not shown. A portion of the library; the hit share may differ from the screen's.
SMILES,RanGTP-Impb inh,FGF22 binding,Calb FLC,AF4-AF9 inh,Beta apoptosis,ALR H2O2 inh,Ecoli rRNA inh,Ecoli rRNA inh OD600,Ecoli rRNA inh RFP,T cruzi repl
CSc1c(-c2ccccn2)c(N)nn1C(=O)C1CCC1,2.2,i,-2,-1.3,-7,2,.,.,.,-6
COc1ccccc1CCNC(=O)c1cccc(S(=O)(=O)N2CCc3ccccc3C2)c1,.,i,.,-5.8,1,18,.,.,.,.
CCOC(=O)c1c(C2CC2)csc1NC(C)=O,6.2,.,-3,.,0,0,.,.,.,8
CC(C)(C)OC(=O)N[C@H](Cc1ccccc1)C(=O)N1CCC[C@@H]1C(=O)O,?,i,-3,-2.2,-5,-5,20,16,1.1,-8
C=CCNC(=O)C1CCC(C(=O)NCC=C)CC1 (stereo not drawn),-1.0,i,6,-12,-5,2,3,4,5.5,-14
CN(C)CCNS(=O)(=O)c1ccc2c3c(cccc13)C(=O)N2,9.2,i,0,2.6,-7,-65,7,11,-1.1,-1
O=C(NC(=S)Nc1cc(S(=O)(=O)N2CCOCC2)ccc1N1CCOCC1)C1CCCC1,0.2,.,-3,.,0,1,.,.,.,-1
CC(C)CNC(=O)c1ccccc1NC(=O)c1ccccc1N(C)S(C)(=O)=O,-2.1,.,-4,.,-3,10,.,.,.,-1
COc1ccc(/C=C/c2c(-c3ccc(OC)cc3)oc3ccc(-c4ccc(OC)cc4)cc23)cc1,3.8,i,1,-0.2,2,0,8,8,2.9,-14
CCC(=O)Nc1cccc(-c2nnc(-c3ccccc3)o2)c1,?,i,-1,0.6,4,-1,9,0,-1.2,-1
COc1ccc(N2CCN(C(=O)c3ccc(SC)cc3OC)CC2)cc1,-1.4,i,1,4.7,-3,85*,-2,-8,1.0,9
COc1ccc(CCNC(=O)CC2SC(=NCc3ccccc3OC)NC2=O)cc1 (stereo not drawn),-0.9,i,0,-5.5,-3,-6,-11,-5,4.1,-18
Cc1cc(=O)oc2c(C)c(OCC(=O)c3ccccc3)ccc12,-4.5,i,-5,-14,-2,-17,5,-1,-5.4,-13
COc1ccc(CNC(=O)C2CCCN(C(=O)Nc3ccc(OC)cc3)C2)cc1 (stereo not drawn),-0.9,i,-21,0.7,4,-2,8,10,3.3,3
COc1ccccc1NC(=O)CCSc1nc(C)cc(C)n1,1.1,i,4,-0.7,-4,0,-9,-9,-5.7,12
COc1ccc(/C=C(\NC(=O)c2ccc(C)cc2)C(=O)NCCCn2ccnc2)cc1OC,20,i,-7,0.8,5,-2,15,12,0.0,5
COc1ccc(NC(=O)CN(c2cc(C)cc(C)c2)S(=O)(=O)c2c(C)noc2C)cc1,1.4,i,5,-2.3,.,.,-7,-8,-0.4,33
COc1ccccc1C(=O)NC(CCSC)C(=O)OC(C)C(N)=O (stereo not drawn),0.8,i,-6,-2.3,-2,-11,3,-2,-2.6,2
O=C(CSc1nccc(=O)[nH]1)Nc1ccc(F)c(Cl)c1,0.5,.,40,.,-8,100*,-5,2,1.2,-23
CCc1cccc(C)c1NC(=O)CSc1nnc(-c2ccco2)n1N,3.0,.,13,.,-3,3,.,.,.,-7
CCN1CCN(S(=O)(=O)c2cc(OCC(=O)NC3CCCCC3)c(C)cc2Cl)CC1,-3.4,.,-3,.,1,-10,.,.,.,13
Cc1cccc(NC(=O)C2CCN(S(=O)(=O)c3c(C)nn(C)c3C)CC2)n1,-5.2,i,-6,-2.6,0,-6,9,10,3.7,-1
COCCOC(=O)c1c(NC(=O)COC(=O)Cc2cccc(OC)c2)sc(C(N)=O)c1C,?,i,11,-1.5,1,0,22,21,3.4,3
CSc1cccc(NC(=O)CCCOc2ccc(Cl)cc2C)c1,-0.6,i,-3,-1.9,-3,.,-19,-9,0.1,8
Cc1cc(NC(=O)CSc2n[nH]c(CC(C)C)n2)no1,0.5,.,?,.,-7,0,.,.,.,-3
O=C1c2ccccc2C(O)N1Cc1ccco1 (stereo not drawn),1.5,i,4,-1.3,-2,-14,10,-4,-0.7,-32
CC(=O)c1sc2nc(-c3cccs3)cc(C(F)(F)F)c2c1N,-44,.,3,.,2,12,.,.,.,2
COc1ccc(N2C(=O)CSC23CCCCC3)cc1,0.2,.,10,.,2,98*,.,.,.,-8
Cc1ccc(CSc2ccc3nnc(-c4cccnc4)n3n2)cc1,1.0,.,?,.,-2,7,.,.,.,-1
O=C(CSc1nnnn1-c1ccc(Cl)cc1)N1CCc2ccccc2C1,-0.9,.,-4,.,-3,12,.,.,.,8
Cc1ccc(C(C2=C(O)CC(C)(C)CC2=O)C2C(=O)CC(C)(C)CC2=O)o1 (stereo not drawn),5.7,.,5,.,-5,97*,.,.,.,-5
O=C(O)c1ccc(S(=O)(=O)c2ccc3c(c2)C(=O)N(Cc2ccco2)C3=O)cc1,?,.,16,.,-6,-1,.,.,.,-11
O=C(Nc1nc2c(s1)CN(Cc1ccccc1)CC2)c1cccc(S(=O)(=O)N2CCc3ccccc32)c1,140*,.,5,.,2,2,.,.,.,30
O=C(Nc1ccncc1)c1ccccc1-c1ccccc1,2.8,i,-1,-1.9,-5,-6,-3,-3,2.0,24
CS(=O)(=O)N(CC(=O)N1CCN(c2cccc(Cl)c2)CC1)c1cccc(F)c1,-1.7,.,29,.,-3,-5,.,.,.,1
O=P(OC1CCCCC1)(OC1CCCCC1)C(O)c1ccc(Cl)cc1Cl (stereo not drawn),0.5,.,15,.,0,-5,.,.,.,33
O=C1NCC(COc2ccc([N+](=O)[O-])cc2)O1 (stereo not drawn),1.1,i,3,-1.4,-7,-2,7,1,-2.9,-4
CCOC(=O)C1CCN(c2c(NCCCN3CCCCC3)c(=O)c2=O)CC1,2.6,i,0,7.2,-2,.,8,3,-3.0,-14
COC(=O)c1ccccc1N(C)S(C)(=O)=O,-0.6,.,0,.,-5,6,.,.,.,-12
COc1ccc(/C=C2\SC(=O)N(CCC(=O)Nc3ccc(S(=O)(=O)Nc4nccs4)cc3)C2=O)cc1,-7.8,.,-2,.,-8,.,.,.,.,-3
Cc1ccc(NC(=O)CC2S/C(=N/c3nccs3)N(C)C2=O)c(C)c1 (stereo not drawn),0.4,.,12,.,0,13,.,.,.,0
CN1CCN(C(=O)c2ccc3c(c2)N(Cc2cccc(Cl)c2)C(=O)c2ccccc2S3=O)CC1 (stereo not drawn),0.7,i,5,-4.4,4,.,-3,-1,-1.8,5
O=C(NCC1CCCO1)c1cc(-c2ccco2)nc2ccccc12 (stereo not drawn),-2.2,.,-4,.,1,7,3,3,-3.1,-5
COc1cccc2c(=O)n(CC(=O)NC3CCCC3)ccc12,3.5,i,-4,-2.8,-3,28,7,1,0.1,-6
O=C(/C=C/c1ccccc1)NCC(=O)N/N=C/c1cccs1,-0.4,i,3,-11,4,-3,5,6,-0.4,19
COc1cc(C2C(C(=O)c3ccco3)=C(O)C(=O)N2CCc2ccccc2)ccc1O (stereo not drawn),-1.8,.,14,.,-2,58,.,.,.,-11
COC(=O)c1cc(C#N)c(N2CCN(C)CC2)nc1C,10,i,13,-1.7,0,1,9,-1,1.6,29
COc1ccc(CCNC(=O)C(=O)NCC2OCCN2S(=O)(=O)c2ccc(OC)c(OC)c2)cc1 (stereo not drawn),1.0,i,-4,-2.4,-2,5,9,-11,-4.4,-16
O=C(Cc1ccccc1)NN1C(=O)C2C(C1=O)C1C=CC2C12CC2 (stereo not drawn),-0.5,i,-7,-2.0,0,.,5,4,0.6,2
COc1ccc(/C=C/C(=O)OCC(=O)NCc2ccccc2Cl)cc1OC,.,i,.,0.2,-5,0,-8,-36,-2.1,.
CC(C)(C)NC(=O)CN1CCC(O)(c2ccc3c(c2)OCO3)CC1,2.5,.,0,.,-1,-6,.,.,.,-11
CS(=O)(=O)c1cnc(-c2ccccc2)nc1Oc1ccc(F)cc1,?,.,-6,.,1,-15,.,.,.,3
COc1cccc(/C=N/NC(=O)c2ccccc2N(Cc2ccccc2)S(=O)(=O)c2ccccc2)c1OC,-3.0,.,-3,.,13,-6,.,.,.,14
CCCCC(=O)NC1(C(F)(F)F)NC(=O)N(Cc2ccccc2)C1=O (stereo not drawn),1.6,i,-12,0.2,-3,1,-1,1,-0.2,-9
O=C(CNC(=O)c1ccccc1)N/N=C/C=C/c1ccccc1,4.0,i,0,-2.7,-6,-12,0,-2,-1.8,-17
CCC(C)CCN1C(N(C)C)=NC[C@@H]1CC(C)C (stereo partly drawn),.,i,.,-0.1,3,.,6,2,2.1,.
COC(=O)CC1C(=O)NCCN1C(=O)CSc1nnnn1-c1ccc(Cl)cc1 (stereo not drawn),-1.9,i,23,0.6,-10,-1,8,-8,1.7,-4
CCn1c(C)nc2cc(C(=O)NNS(=O)(=O)c3c(F)cc(F)c(Cl)c3F)ccc21,2.3,i,?,-4.7,-3,14,1,2,4.6,-32
O=C(CCc1ccccc1Cl)Nc1cccc(S(=O)(=O)N2CCCC2)c1,-3.0,i,-4,-0.8,.,-2,-25,-26,-6.6,3
Cc1ccc(S(=O)(=O)N2CCC(C(=O)OCC(=O)NC3(C#N)CCCCC3)CC2)cc1C,4.1,i,-3,-1.7,.,-9,-9,-6,5.0,-10
# Following part.
SMILES,RanGTP-Impb inh,FGF22 binding,Calb FLC,AF4-AF9 inh,Beta apoptosis,ALR H2O2 inh,Ecoli rRNA inh,Ecoli rRNA inh OD600,Ecoli rRNA inh RFP,T cruzi repl
CCC(N1CCOC1=O)S(=O)(=O)c1ccc(C)cc1 (stereo not drawn),0.5,.,-1,.,-3,0,.,.,.,-6
COc1ccc(N(CC(=O)NCCSC2CCCCC2)S(=O)(=O)c2ccccc2)cc1OC,6.5,i,0,-0.3,9,0,.,.,.,22
O=C(OCC(=O)N1CCCCC1)c1cc(=O)[nH]c2ccccc12,.,i,.,-1.2,7,3,4,16,4.1,.
O=C(Nc1nc2c(c(=O)[nH]1)CCCC2)C1CC1,-0.6,.,0,.,0,-1,.,.,.,-10
COc1ccc(Oc2ncc(CN3CCN(c4ccccc4)CC3)s2)cc1,1.4,.,-2,.,5,20,.,.,.,8
Cc1nc(Nc2nc(CSc3ccc(Cl)cc3)cc(=O)[nH]2)nc2ccccc12,0.6,.,7,.,16,-4,.,.,.,9
CC1Cc2ccccc2N1S(=O)(=O)c1ccc(Cl)nc1 (stereo not drawn),2.1,i,-5,-3.5,-6,-6,-5,-4,0.7,0
O=C(Nc1ncc([N+](=O)[O-])s1)c1cccc([N+](=O)[O-])c1,2.5,i,13,1.7,55,98*,-3,-1,-9.2,4
COc1cc2[nH]c(C(=O)N3CCc4ccccc4C3)cc2c(OC)c1OC,5.9,i,1,4.4,.,-7,-7,-20,-2.8,10
N=c1n(CCN2CCOCC2)c2ccccc2n1Cc1ccccc1Br,1.9,.,-24,.,3,-4,.,.,.,9

# RanGTP-Impb inh: hit marks shown above
structure,RanGTP-Impb inh,FGF22 binding,AF4-AF9 inh,ALR H2O2 inh,Ecoli rRNA inh,Ecoli rRNA inh OD600,Ecoli rRNA inh RFP
O=C(Nc1nc2c(s1)CN(Cc1ccccc1)CC2)c1cccc(S(=O)(=O)N2CCc3ccccc32)c1,140*,.,.,2,.,.,.

# Assay outcomes: PubChem, Broad Institute
